PrP UTR inh: inhibition of PrP 5' UTR reporter expression. 0.35% of 340,000 active. cell-based PrP 5' UTR mRNA reporter, plate reader. inhibition, % (test concentration not listed);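 active = every replicate at 50% or more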;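 also: 0 = median of the neutral control wells; tested in H4 reporter cells; numbers are from one replicate; inactives centre near -14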
Autofluor counter: counter-screen for toxin protease inhibitors: compound fluorescence | compound autofluorescence counterscreen, microsphere flow cytometry; stronger effect = higher value | fluorescence intensity (test concentration not listed) | 3.1% of 360,000 active | AID 624483;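 active = at least 3 SD above the mean of all compounds, about 16000 in these data; inconclusive = too few beads counted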;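 also: 100 nL of 1 mM stock went into each well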
Sa ugtP lethal: growth inhibition of ugtP-null S. aureus, primary screen, RN4220 ugtP deletion, OD600 | 16 h; some inactives read as strong as hits | growth inhibition, % (test concentration not listed) | 0.54% of 330,000 active;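 active = z-score under -3 and OD600 up to 0.15 on both plates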;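 also: plate controls were untreated wells for no effect and antibiotic for full effect; wells of about 80 µL received 100 nL stock; the first replicate is given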
Mtb hypoxia rep: PubChem AID 1159583. fluorescence inhibition, % (test concentration not listed). 0.1% of 300,000 active. M. tuberculosis hypoxia-regulated fluorescent reporter, fluorescence;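 active = 35 to 45% if threefold the growth effect, above 45% if 1.5-fold the growth effect; inactive = the rest, general growth blockers included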;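 also: wells of about 50 µL received 100 nL stock; 0% = vehicle wells and 100% = reference inhibitor wells; whole bacteria with a GFP reporter of the hypoxia response; strong numbers were not always called active; many hits fall short of the cut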
Sa RN4220 lethal: growth inhibition of S. aureus RN4220, primary screen, OD600; inhibition, % (test concentration not listed); AID 1259311, 2017; 0.33% of 330,000 active; 16 h;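 active = z-score of -3 or lower and OD600 up to 0.18 on both plates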;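 also: plate controls were untreated cells for no effect and reference antibiotic for full effect; stock transfer was 100 nL into about 80 µL; one replicate is shown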
BJeLR viability: MLPCN primary cell-based screen for lethality selective to Ras in HRASV12 cells | BJeLR (HRASV12) viability, CellTiter-Glo ATP luminescence, 48 h; reference of the scale not given here | inhibition, % (no concentration beside the values) | 0.17% of 300,000 active | AID 1554, 2009;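 active = replicate mean above 50%; inconclusive = above 50% but judged a plate artefact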;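 also: 50 nL library stock added to about 25 µL; numbers are from one replicate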
Mtb hypoxia rep growth: recorded beside Mtb hypoxia rep, whose call it bears; growth inhibition, %; measured here: M. tuberculosis growth (absorbance);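 0% = vehicle and 100% = reference antibiotic; read after six days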
* hit, by the source's call; ? = inconclusive; . = not tested or not shown.

SMILES	PrP UTR inh	Autofluor counter	Sa ugtP lethal	Mtb hypoxia rep	Mtb hypoxia rep growth	Sa RN4220 lethal	BJeLR viability
COCc1c(C(=O)OCC(=O)N2c3ccccc3NC(=O)C2(C)C)oc2ccccc12	1	15992	-4	3	10	-1.0	.
COc1ccc(OCC(=O)Nc2cc(NC(=O)COc3ccc(OC)cc3)cc(C(=O)O)c2)cc1	-5	3486	5	-2	-4	4.4	0
COc1cccc(NC(=O)CN(c2ccc(C)cc2)S(=O)(=O)c2c(C)nn(C)c2C)c1	-13	14255	-13	-18	4	6.7	1
Cc1ccc(C23CC4CC(CC(C(=O)NC(C)C(=O)O)(C4)C2)C3)cc1 (stereo unspecified)	.	3065	-5	-4	3	3.3	4
O=C(CN1C(=O)S/C(=C\c2ccccc2Cl)C1=O)NC1C=CS(=O)(=O)C1 (stereo unspecified)	-29	5303	1	-5	-1	3.1	-14
COc1ccc(CCN(C)Cc2nc(Cc3ccc(OC)c(OC)c3)no2)cc1OC	-7	3629	1	7	-3	2.8	8
Cc1ccc(-c2nnn(CC(=O)N(CCCO)C(C(=O)NC3CCCC3)c3ccc(F)cc3)n2)o1 (stereo unspecified)	-27	3824	5	4	7	-3.0	9
Cc1ccc(C(=O)NCC(=O)OCC(=O)c2ccccc2)s1	-11	7353	5	0	-2	2.4	.
Cc1ccc(NN2C(=O)C=C(c3ccc(Cl)cc3)C2=O)cc1	-23	2505	.	.	.	.	2
O=C(Nc1ccc2oc(=O)ccc2c1)c1ccco1	-35	3028	12	16	5	6.7	-2
c1ccc(Nc2nn[nH]n2)cc1	-10	11006	-1	1	5	3.9	4
O=C(Nc1ccc(Cl)cc1)c1cccc(S(=O)(=O)Nc2ccccn2)c1	-14	5806	-4	4	-14	-7.5	10
O=C(CN1CCN(c2ccccc2F)CC1)NCc1ccc(Cl)cc1	-11	3429	-1	6	24	1.3	-4
Cc1ccc(C(c2nnnn2C2CCCC2)N2c3ccccc3CC2C)cc1 (stereo unspecified)	-28	2902	9	9	4	5.4	16
N#CCCSCc1ccc(OCC(=O)O)cc1	-27	4478	2	13	12	3.8	-13
COc1ccccc1C(=O)NC(CCSC)C(=O)NCC(c1ccccc1OC)N1CCCC1 (stereo unspecified)	-7	?	4	10	-5	4.3	3
CCCC1(c2ccccc2)NC(=O)N(CC(=O)Nc2ccc(N3CCOCC3)cc2)C1=O (stereo unspecified)	-19	3967	-7	20	8	3.1	.
Cc1ccc(C)c(NC(=O)CCC(=O)NNS(=O)(=O)c2ccc(Cl)cc2)c1	-28	8510	5	-9	-1	2.9	.
CC(=O)Nc1ccc(-c2cc3ccccc3o2)cc1	-52	.	-17	-2	8	-3.8	-9
COCCSc1nnc(NC(=O)c2cc(C(=O)OC)cc([N+](=O)[O-])c2)s1	-7	4278	5	0	10	6.6	9
COc1ccc(/C=C/C(=O)NC(=S)N2CCCC(C(N)=O)C2)cc1 (stereo unspecified)	-22	5996	2	-9	2	-1.0	-12
COc1ccc(NC(=O)c2ccc(CNc3c(N4CCCC4)c(=O)c3=O)cc2)cc1Cl	-6	3903	10	1	-8	1.3	2
COc1cc2[nH]c3c(=O)n(CCN4CCOCC4)cnc3c2cc1OC	-3	4784	-6	-6	-3	-4.6	1
COCCNC(=O)C(c1ccc(C)cc1)N(C(=O)CCC(=O)Nc1ccccn1)c1cccc(C)c1 (stereo unspecified)	3	4509	6	-7	-9	-2.2	-4
CCCC(=O)C1=C(O)C(C(=O)OC)C(C)(C)CC1=Nc1ccc(OC)cc1 (stereo unspecified)	-12	3558	6	-1	1	4.3	-4
CCCOc1ccc(/C=C2\SC(=S)N(CC3CCCO3)C2=O)cc1 (stereo unspecified)	-33	2656	-10	2	7	-3.8	-7
COC(=O)C1=C(c2ccc3ccccc3c2)CC2CCC1N2C(=O)NCCO (stereo unspecified)	.	.	-4	2	1	5.8	.
O=C(CSc1nnc(CNC(=O)c2ccc(F)cc2)o1)Nc1nccs1	-3	.	1	4	7	0.7	-7
N#Cc1ccc(-c2nc3cc(Cl)ccc3c(=O)n2O)cc1	8	3574	-4	-13	-19	15	-1
COc1cccc2c(NN=Cc3ccc(O)c(O)c3)cc(C)nc12	.	.	3	5	-9	1.2	.

Copied from the list.
`COCCNC(=O)C(c1ccc(C)cc1)N(C(=O)CCC(=O)Nc1ccccn1)c1cccc(C)c1` (stereo unspecified) in Mtb hypoxia rep has -7
`COC(=O)C1=C(c2ccc3ccccc3c2)CC2CCC1N2C(=O)NCCO` (stereo unspecified) in Mtb hypoxia rep growth has 1
`COCCSc1nnc(NC(=O)c2cc(C(=O)OC)cc([N+](=O)[O-])c2)s1` in Mtb hypoxia rep has 0

The list goes on:
SMILES	PrP UTR inh	Autofluor counter	Sa ugtP lethal	Mtb hypoxia rep	Mtb hypoxia rep growth	Sa RN4220 lethal	BJeLR viability
O=C(COC(=O)/C=C/c1ccc([N+](=O)[O-])cc1)NC(=O)NC1CCCCC1	21	3489	-2	0	10	3.0	.
C/C(=N\NC(=O)CN1CCN(Cc2ccccc2)CC1)c1cccs1	-11	5910	.	.	.	.	4
O=C(COC(=O)C12CC3CC(CC(C3)C1)C2)Nc1ccccc1F	-30	9271	11	2	2	8.4	1
Cc1nn(-c2ccccc2)c(N)c1C(O)(CSc1nccn1C)C(F)(F)F (stereo unspecified)	-20	10383	2	11	8	4.4	-1
ClC1CCCCC1n1nnc2ccccc21 (stereo unspecified)	-12	4308	5	9	5	3.3	1
COC(=O)c1ccc(-c2ccc(/C=N/N3C(=O)C4C5C=CC(CC5)C4C3=O)o2)cc1 (stereo unspecified)	-22	2075	.	.	.	.	0
CCN(CC(=O)Nc1c(F)cccc1F)C(=O)CCCc1c[nH]c2ccccc12	-23	5678	11	9	2	-2.1	4
O=C(Cc1ccccc1F)Nc1cccc2cccnc12	-22	7237	.	.	.	.	16
Cc1c(C#N)c(O)[nH]c(=O)c1N=Nc1ccc(S(N)(=O)=O)cc1	-33	3856	7	21	12	1.8	0
COc1ccc(CCNC(=O)Cn2cnc3c(nnn3Cc3ccccc3F)c2=O)cc1OC	-18	6293	5	-1	1	1.6	3
CC(=O)c1ccc(Nc2nc3ccccc3nc2NS(=O)(=O)c2cccs2)cc1	-19	5392	48	0	-2	46	7
COc1ccc(C(C)C)cc1S(=O)(=O)n1cnc(C)c1	-14	10592	-7	9	6	6.3	-1
COC(=O)[C@]1(Cc2ccccc2)N[C@H](CN(C)C(=O)C2CCCCC2)[C@@H]2C(=O)N(Cc3ccccc3)C(=O)[C@@H]21	-8	3525	-4	2	3	1.7	.
CCNC(=S)N(Cc1ccc2c(c1)OCO2)C1CC(=O)N(c2ccc(OC)cc2)C1=O (stereo unspecified)	1	2828	-4	.	.	5.4	-6
O=C(N1CCOCC1)C1(c2ccccc2)CCCCC1	-30	4171	-2	21	5	9.2	-12
CCN(CC)S(=O)(=O)c1ccc(NC(=O)c2cc(-c3cccs3)nc3ccccc23)cc1	-16	2757	-4	5	4	4.8	2
CN1CCN(C(=O)CCc2ccc(S(=O)(=O)NC3CCCCC3)cc2)CC1	-17	3857	8	-5	1	4.8	5
CC(C)COc1cccc(C(=O)Nc2ccc(N3CCOCC3)cc2N2CCOCC2)c1	-16	6857	4	4	2	1.6	2
Nc1nc(-c2ccc(Cl)cc2)nn1C(=O)c1cccs1	-22	4368	0	6	5	0.4	6
CCn1cc(Br)c(C(=O)NCc2ccco2)n1	-14	8176	4	9	7	2.7	-12
O=C(CCCCCNC(=O)c1ccccc1)N/N=C/c1ccccc1O	-21	2407	.	.	.	.	-2
COc1cnc(-c2ccccn2)nc1NC(C)C	5	4574	2	18	22	1.5	3
Cc1ccc(S(=O)(=O)CCc2nnc(NC(=O)C3CCCCC3)s2)cc1	-5	4256	1	5	7	2.6	-1
COc1ccc(C(=O)OCC(=O)c2c(N)n(C)c(=O)n(C)c2=O)c(OC)c1OC	-9	3683	2	2	1	4.1	.
Cc1cc(C)c(S(=O)(=O)Nc2nnc(C(C)C)s2)c(C)c1	-11	3468	6	0	-6	13	-9
Cc1c(Cl)cccc1N/C(SCC(=O)N1CCCCCC1)=C(/C#N)c1nc2ccccc2s1	-37	2822	.	.	.	.	22
CCOC(=O)c1ccc(NS(=O)(=O)c2ccc3c(c2)n(C)c(=O)n3C)cc1	-20	3191	3	-7	-8	1.6	3
Cc1nc(C)c(CCNC(=O)c2ccccc2)s1	-16	7646	8	11	1	6.2	6
CCN(CC)S(=O)(=O)c1ccc(Cl)c(NC(=O)COC(=O)c2cccn2C)c1	10	4431	21	-2	8	15	5
Cc1cc(C)nc(OC(C(=O)O)C(OCC(C)C)(c2ccccc2)c2ccccc2)n1 (stereo unspecified)	-25	3577	13	7	-3	2.9	8
COc1ccc(-c2cc3cc(OC)c(OC)cc3c(C)n2)cc1C	-5	6520	-2	3	14	0.5	5
Cc1cc(OCCOCCN2CCCC2)ccc1C(C)C	-7	3682	1	11	11	5.2	-16
Cc1cc(C)nc(SCc2cccc(C(=O)O)c2)n1	-9	10547	0	13	1	2.6	3
O=C(N/N=C/C=C/c1ccccc1)c1ccncc1	-3	2386	.	.	.	.	-5
CCOC(=O)C1CCCCN1C(=O)CCc1c(C)nc2cc(-c3ccccc3)nn2c1C (stereo unspecified)	13	4701	5	-2	6	6.7	3
O=C(COC(=O)/C=C/c1ccccc1)Nc1ccc(Cl)cn1	-8	5770	6	5	11	4.5	6
CC(C)Cc1nn2c(=O)cc(O)nc2s1	-22	2485	2	10	-2	5.6	-3
CCn1c(SCC(=O)Nc2nc(C)cs2)nnc1-c1ccncc1	-15	4149	0	6	-3	2.3	-12
CCCC(=O)NC1CCCc2c1cnn2-c1ccc(C)c(C)c1 (stereo unspecified)	-29	4151	2	11	6	1.8	-27
CN(C)C1(CNC(=O)Cc2ccccc2F)CCCCC1	.	4142	1	-5	-4	-0.6	8
CCN(C(=O)CSc1ncn[nH]1)c1c(N)n(Cc2ccccc2)c(=O)[nH]c1=O	-25	?	2	-5	-6	4.6	-5
Cc1ccc(S(=O)(=O)N2CCN(C(=O)COc3ccc(NC(=O)c4ccco4)cc3)CC2)cc1	-2	2063	-11	.	.	-1.7	-6
CCN(CC)CCC#CC(O)(c1ccccc1)c1ccccc1	-27	2547	3	10	6	2.6	9
CCOC(=O)c1nc(-c2ccccc2)oc1N(C)C	-15	3445	7	.	.	6.4	-10
CC(=O)c1ccc(NC(=O)c2onc(C)c2Cl)cc1	-17	4257	2	2	8	-2.0	1
CCOc1ccc(N2CC(C(=O)Nc3ccc(N4CCOCC4)cc3)CC2=O)cc1 (stereo unspecified)	-10	?	2	12	5	5.5	2
CC(c1ccon1)N(C)Cc1cn[nH]c1-c1ccc(F)cc1F (stereo unspecified)	-30	4846	6	20	7	2.3	16
COc1ccc(-c2[nH]ncc2CN(C)C(C)c2cccs2)c(F)c1 (stereo unspecified)	-8	2187	-2	5	15	5.9	14
CCCOc1ncnc2c1sc1nc3c(cc12)COC(C)(C)C3	-22	4906	7	0	7	5.9	-17
NS(=O)(=O)c1ccc(Nc2ccc3nonc3c2[N+](=O)[O-])cc1	-10	2620	1	7	0	8.0	-10
Cc1cccc(NC(=O)NC(C)C(c2cccs2)N2CCOCC2)c1 (stereo unspecified)	8	4459	7	7	-3	8.0	6
COc1cc(-c2cc(C(=O)Nc3cccc(C(C)=O)c3)c3ccccc3n2)cc(OC)c1OC	-4	3327	.	.	.	.	-3
CCc1ccc(C(=O)COC(=O)c2cc([N+](=O)[O-])ccc2N2CCOCC2)cc1	-28	5256	1	9	-3	0.9	3
CC(C(=O)NC1CCCCC1)N1CCN(C)CC1 (stereo unspecified)	-10	4548	-7	-4	1	-3.5	-4

A stretch taken from the entries so far, as a working copy:
SMILES	PrP UTR inh	Autofluor counter	Sa ugtP lethal	Mtb hypoxia rep	Mtb hypoxia rep growth	Sa RN4220 lethal	BJeLR viability
Cc1cccc(NC(=O)NC(C)C(c2cccs2)N2CCOCC2)c1 (stereo unspecified)	8	4459	7	7	-3	8.0	6
COc1cc(-c2cc(C(=O)Nc3cccc(C(C)=O)c3)c3ccccc3n2)cc(OC)c1OC	-4	3327	.	.	.	.	-3
CCc1ccc(C(=O)COC(=O)c2cc([N+](=O)[O-])ccc2N2CCOCC2)cc1	-28	5256	1	9	-3	0.9	3
CC(C(=O)NC1CCCCC1)N1CCN(C)CC1 (stereo unspecified)	-10	4548	-7	-4	1	-3.5	-4

Screening data (PubChem BioAssay)
